AID504770: growth inhibition of E. coli YBA685, primary screen, V. cholerae RctB inhibitors; E. coli YBA685 rctB-dependent plasmid, OD600 growth, 3 h; stronger effect = lower value; z-score (test concentration not listed); hit rate 0.27% among 130,000; AID 504770, 2011;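 active means z-score under -2 on both plates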;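 further: wells of about 30 µL received 100 nL stock; score is relative to mean and SD of the test wells; the first replicate is given; strong numbers were not always called active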
Ba CapD inh: Bacillus anthracis CapD inhibitors, primary screen, biochemical, fluorescence intensity; purified CapD enzyme, fluorescence intensity read-out; stronger effect = lower value; some hits fall short of the stated cut; CapD gamma-glutamyltranspeptidase (Bacillus anthracis Ames Ancestor); z-score (test concentration not listed); hit rate 0.23% among 140,000;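 active means z-score under -4 in either of two replicates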;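 further: stock transfer was 100 nL into about 40 µL; score is relative to mean and spread of the plate; one replicate is shown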
Active calls of the source: *; / = not tested or not shown.

SMILES | AID504770 | Ba CapD inh
O=C(CSc1nncc(=O)[nH]1)Nc1cccc(Cl)c1 | -0.15 | /
CCn1cc(Cc2cn(CC)nc2C)c(C)n1 | 2.2 | -0.09
Cc1ccccc1NC(=O)Cc1nnc(SC(C)c2nc3ccccc3c(=O)[nH]2)n1C (configuration not stated) | 1 | /
CS(=O)(=O)c1ccc([C@@H](O)[C@@H](CF)NC(=O)C(Cl)Cl)cc1 | / | -0.41
c1ccc(N=C2OCC(COc3ccccc3)S2)cc1 (configuration not stated) | -0.2 | 0.45
O=C(NC(CO)c1ccccc1)c1ccc(I)cc1 (configuration not stated) | / | 0.88
C=CCSc1nc2sc3c(c2c(=O)n1-c1ccc(C)cc1)CCC3 | 0.2 | 2.9
CCN(Cc1ccccc1)C(=O)Cc1ccccc1 | -0.35 | 0.67
O=C(CSC1=NC2(CCCC2)Nc2ccccc21)Nc1ccc2c(c1)OCCO2 | 0 | -0.24
Cc1cccc(Nc2cc(NC3CCCCC3)c3noc4c3c2C(=O)c2ccccc2-4)c1 | / | -0.85
CCOC(=O)c1nnn(-c2nonc2N)c1CSc1nc2ccccc2s1 | / | -1.1
Cc1c(Br)c([N+](=O)[O-])nn1CC(=O)Nc1cc(C(F)(F)F)ccc1Cl | / | 0.33
COC(=O)c1cn(-c2cccc(C)n2)cn1 | 1.7 | -0.005
Cc1cc(C(=O)N2N=C(C3CC3)CC2(O)C(F)(F)F)c2ccccc2n1 (configuration not stated) | -0.55 | -0.05
CC(C)NC(=O)Nc1cccc(Cl)c1 | -0.85 | 0.46
CN(Cc1ccccc1)C(=O)c1cnc2n(c1=O)CCS2 | -0.8 | /
CCC(=O)Nc1ncnc2sc3c(c12)CCCC3 | -0.65 | -0.07
N#CCSc1nnc(C2COc3ccccc3O2)o1 (configuration not stated) | 0 | /
CCC(Sc1nc2ccsc2c(=O)n1Cc1ccccn1)C(=O)Nc1cccc(C)c1 (configuration not stated) | -0.85 | -0.46
O=C1CCC(c2ccc(Br)cc2)=NN1 | 0.2 | 0.04
CC(C)P(=O)(C(C)C)C(c1cc(C(C)(C)C)c(O)c(C(C)(C)C)c1)N1CCCCC1 (configuration not stated) | / | -0.54
CC(Sc1nc2sc3c(c2c(=O)n1C)CCCC3)C(N)=O (configuration not stated) | 0.35 | /
CCCCN(C)C(=O)c1noc2c1COc1ccccc1-2 | 0 | -1.9
O=C(COc1ccc(Cl)cc1)Nc1ccc2c(c1)CCCN2C(=O)C1CC1 | -0.25 | /
N#CCSc1nc2cc3c(cc2c(=O)n1CCCC(=O)NCc1ccc2c(c1)OCO2)OCO3 | 0.25 | 0.41
CC1=NC(C(F)(F)F)(C(F)(F)F)N=C(N2CCCCC2)O1 | 0.05 | 0.26
CCn1cc(C(=O)Nc2ccc(OC)cc2)c(=O)c2ccc(C)nc21 | -0.2 | 1.8
CC(C)Oc1ccc2c(=O)cc(-c3ccccc3)oc2c1 | / | -0.08
Cc1[nH]c2ccc(-c3nnc(SCC(N)=O)n3-c3ccc(Br)cc3)cc2c1C | / | -1.4
Cc1ccc2nc(C)c3c(c2c1)N(c1ccccc1)CC3 | -0.15 | 33
CC(NC(=O)Nc1ccc2c(c1)N(C)C(=O)c1ccccc1S2)c1ccccc1 (configuration not stated) | -0.15 | -0.53
O=C(O)c1csc(Cc2ccccc2)n1 | 0.2 | -0.42
CC(=O)Nc1ccc(CC#N)cc1 | -0.8 | -0.69
CCOC(=O)C1CCC(CN(Cc2ccccc2)S(=O)(=O)c2ccc(F)c(C)c2)CC1 (configuration not stated) | -0.85 | 0.48
O=C(O)CCC(=O)N1CCN(C(=O)c2cc(N3CCOCC3)nc(N3CCOCC3)n2)CC1 | / | -0.46
CNS(=O)(=O)c1ccc2c(S(=O)(=O)NC)c(OC)ccc2c1 | -0.95 | 4.6
COc1ccc(S(=O)(=O)N(C)c2ccnc(C(=O)N3CCC4(CC3)OCCO4)c2)cc1 | -0.25 | -0.085
COc1ccc(N=c2oc3ccc4ccccc4c3cc2-c2nc(-c3ccc(Br)cc3)cs2)cc1 | / | 0.13
Cc1onc(-c2c(Cl)cccc2Cl)c1N(C)C(=O)N1CCCCC1 | -0.45 | 9.4
CC1CCCC(C)N1C(=O)CCN1C(=O)C2C3C=CC(C3)C2C1=O (configuration not stated) | 0.45 | -0.035
Nc1cccc(C(=O)Nc2nccs2)c1 | -1.2 | 8.8
O=C(/C=C/c1cccs1)N1CCCC1 | -0.4 | -2.1
COC(=O)c1sc(N)c(C(=O)OC)c1CSc1nnc(Cc2csc(C)n2)o1 | -0.35 | /
Cc1ccc(S(=O)(=O)Nc2ccc(OC3OC(CO)C(O)C(O)C3O)cc2)cc1 (configuration not stated) | 1.4 | /
Cc1c(NS(=O)(=O)c2ccc3oc(=O)ccc3c2)cccc1C(F)(F)F | / | -0.21
O=C(c1ccc(Cl)cc1)c1coc2c1cc(O)c1ccccc12 | 1.1 | -0.78
Cc1nn(-c2ccccc2)c2c1P(=S)(N1CCOCC1)N(C)C(c1ccccc1)=N2 (configuration not stated) | -0.5 | /
O=C(COc1ccccc1)N(Cc1cccs1)C1CCS(=O)(=O)C1 (configuration not stated) | -0.4 | -0.17
O=c1[nH]nc(SCc2nc3ccccc3s2)n1Cc1ccco1 | -0.3 | -1.5
CCOC(=O)COc1ccc2c(c1)C(=O)c1cc(OCC(=O)OCC)ccc1-2 | / | -1.5
COCCNC(=O)CSc1nc2ccccc2c(=O)n1CCCC(=O)NCCc1ccc(OC)c(OC)c1 | / | -0.46
O=c1c2c3c(sc2ncn1Cc1ccc(C(F)(F)F)cc1)CCCC3 | / | 0.12
CCN1C(=O)c2ccc(C(=O)Nc3cc(C(=O)O)cc(C(=O)O)c3)cc2C1=O | 1.6 | 0.44
Cc1cc2ccccc2n1CCNC(=O)c1cc2ccccc2oc1=O | -1.1 | 0.77
Cc1oc2cc(O)ccc2c(=O)c1-c1ccccn1 | -0.35 | 5.3
CO/N=C(/CS(=O)c1ccccc1C(=O)OC)c1ccc(Cl)cc1Cl (configuration not stated) | / | 0.67
FC(F)(F)c1ccnc(NCc2ccc(Cl)cc2)n1 | 0 | 6.3
Cc1oc2cc(Br)c(O)c(Br)c2c1-c1ccccc1 | -0.15 | 25
Cc1cccc(Cl)c1S(=O)(=O)NC1CCN(Cc2c(F)cccc2Cl)C1 (configuration not stated) | / | 0.41
CC1C(C#N)=C(N)OC2=C1C(=O)CCC2 (configuration not stated) | 2.2 | /

More compounds
SMILES | AID504770 | Ba CapD inh
COc1ccc(-c2nc3c4c5c(sc4ncn3n2)C(C)(C)NC(C)(C)C5)cc1OC | / | 1.1
O=C(C1CCCCC1)N1CCN(c2ccc(N3CCCCCC3)nn2)CC1 | -1.1 | /
O=C(O)c1cc2c(ccc3ccccc32)oc1=O | -0.45 | 52
COC(=O)c1cc(NC(=S)NN2CCOCC2)cc(C(=O)OC)c1 | 0.6 | 0.39
N#CCCn1c(=O)n(CCC#N)c2ccccc21 | -1.1 | 0.39
CCOC(=O)Cn1c(=O)oc2cc(S(=O)(=O)N(C)c3ccc(OC)cc3OC)ccc21 | 0.2 | -0.38
COc1cccc2c1CCN(Cc1cccc(C)c1)C2=O | 0.2 | /
CCOC(=O)c1c(NC(=O)CSc2nnc3ccccn23)sc(C)c1C | / | -0.46
CC(=O)Nc1ccc(SCC(=O)Nc2cccc3nsnc23)cc1 | 0.2 | /
COc1ccc(/C=C2\C=C(c3ccccc3)N(c3ccc(C)cc3C)C2=O)cc1Br | / | -0.89
CN1C2C=C(N(C(=O)c3ccccc3)c3ccccc3)CC1CC2 (configuration not stated) | / | -0.005
CC(C(=O)O)N1CCCC1=O (configuration not stated) | -0.25 | /
Cc1ccc(S(=O)(=O)N2CCCCC2)cc1C(=O)N1C(C)CCCC1C (configuration not stated) | 0.5 | -0.11
CCc1ccc(C(=O)CC2OC(=O)c3c2ccc(OC)c3OC)cc1 (configuration not stated) | -0.75 | -0.47
O=C(O)c1cccnc1SCCS(=O)(=O)c1ccc(C(F)(F)F)cn1 | 0.1 | 0.24
CCN(CC)S(=O)(=O)c1cccc(-c2nnc(SCC(=O)Nc3cc(C)c(Cl)cc3OC)o2)c1 | 0.7 | /
CC(=O)N1N=C(c2c(-c3ccccc3)c3cc(Br)ccc3[nH]c2=O)CC1c1ccc(F)cc1 (configuration not stated) | / | 0.32
CCOC(=O)c1ccc(N2C(=O)C(=O)/C(=C(/O)c3ccccc3)C2(O)C(=O)OC)cc1 (configuration not stated) | / | -0.055
CC(C)c1ccccc1NC(=O)CN1C(=O)CCC1=O | -0.3 | /
NS(=O)(=O)c1ccc(N=P(N2CCOCC2)(N2CCOCC2)C23CC4CC(CC(C4)C2)C3)cc1 | 1.1 | /
Cc1ccc2c(c1)c(N=NC(=O)CCc1ccccc1)c(O)n2C(C)C | 1.1 | /
COc1ccc(CCNC(=O)CSc2nncn3c2cc2oc(C)cc23)cc1OC | 0.05 | -0.39
O=C1NN(c2ccccc2)C(=S)Nc2ccccc21 | / | -0.86
Cn1nnc(C(O)CN2CCOCC2)n1 (configuration not stated) | -0.3 | /
Cc1ccc2c(c1)-c1c(ssc1=S)C(C)(C)N2C(=O)c1cccc([N+](=O)[O-])c1 | / | -0.36
COc1ccc(C2=N/C(=C\c3cccc(OC)c3OC)C(=O)O2)c(Br)c1 | / | -0.52
COc1ccccc1Cn1c(=S)[nH]c2cc(C(=O)N3CCN(c4ccccc4)CC3)ccc2c1=O | / | 0.27
c1coc(C2OCC(CN3CCCCC3)O2)c1 (configuration not stated) | 1.5 | -0.72
O=C(N1CCC(O)(c2cccnc2)CC1)C12CC3CC(CC(C3)C1)C2 | 1.1 | /
CC(=O)N1CCC(N(C2CC2)S(=O)(=O)c2ccc(C)cc2)CC1 | / | -0.59

17 entries out of the list, sorted by molar mass, smallest number first.
SMILES | AID504770 | Ba CapD inh
CC(C(=O)O)N1CCCC1=O (configuration not stated) | -0.25 | /
Cn1nnc(C(O)CN2CCOCC2)n1 (configuration not stated) | -0.3 | /
c1coc(C2OCC(CN3CCCCC3)O2)c1 (configuration not stated) | 1.5 | -0.72
O=C1NN(c2ccccc2)C(=S)Nc2ccccc21 | / | -0.86
CC(C)c1ccccc1NC(=O)CN1C(=O)CCC1=O | -0.3 | /
CN1C2C=C(N(C(=O)c3ccccc3)c3ccccc3)CC1CC2 (configuration not stated) | / | -0.005
CC(=O)N1CCC(N(C2CC2)S(=O)(=O)c2ccc(C)cc2)CC1 | / | -0.59
CCc1ccc(C(=O)CC2OC(=O)c3c2ccc(OC)c3OC)cc1 (configuration not stated) | -0.75 | -0.47
Cc1ccc2c(c1)c(N=NC(=O)CCc1ccccc1)c(O)n2C(C)C | 1.1 | /
Cc1ccc(S(=O)(=O)N2CCCCC2)cc1C(=O)N1C(C)CCCC1C (configuration not stated) | 0.5 | -0.11
O=C(O)c1cccnc1SCCS(=O)(=O)c1ccc(C(F)(F)F)cn1 | 0.1 | 0.24
CCOC(=O)c1ccc(N2C(=O)C(=O)/C(=C(/O)c3ccccc3)C2(O)C(=O)OC)cc1 (configuration not stated) | / | -0.055
COc1ccc(CCNC(=O)CSc2nncn3c2cc2oc(C)cc23)cc1OC | 0.05 | -0.39
Cc1ccc2c(c1)-c1c(ssc1=S)C(C)(C)N2C(=O)c1cccc([N+](=O)[O-])c1 | / | -0.36
COc1ccccc1Cn1c(=S)[nH]c2cc(C(=O)N3CCN(c4ccccc4)CC3)ccc2c1=O | / | 0.27
CC(=O)N1N=C(c2c(-c3ccccc3)c3cc(Br)ccc3[nH]c2=O)CC1c1ccc(F)cc1 (configuration not stated) | / | 0.32
NS(=O)(=O)c1ccc(N=P(N2CCOCC2)(N2CCOCC2)C23CC4CC(CC(C4)C2)C3)cc1 | 1.1 | /

Next section.
SMILES | AID504770 | Ba CapD inh
COc1ccc(NC(=O)c2cnn3c(C(F)(F)F)cc(-c4ccc(OC)c(OC)c4)nc23)cc1OC | / | -1.3
Cc1nn(C)c(Sc2ccc(Cl)cc2)c1C(=O)Nc1ccccc1 | / | -0.79
CC(=O)Nc1ccccc1N1CCCCC1 | -0.3 | /
O=c1c2c(nc(SCc3ccccc3)n1-c1ccccc1)CCS2 | 0.55 | -1.1
Cc1cc(C(C)(C)C)ccc1NC(=O)CSCC(=O)O | 1.4 | 0.15
COc1ccc(C(CN)CC(=O)O)cc1 (configuration not stated) | -0.7 | /
O=S(=O)(c1ccc(Cl)cc1)c1ccccc1C(F)(F)F | / | -0.2
CCCn1c(=O)c2[nH]cnc2n(-c2ccccc2C)c1=O | 1.1 | -0.015
CCN(CC)S(=O)(=O)c1ccc2oc(C(=O)Nc3cccc(OC)c3)c(C)c2c1 | 1.3 | -0.22
Fc1ccc2nc3n(c2c1F)CCCCCC3 | 0.85 | /
NS(=O)(=O)c1ccc(Nc2nc(-c3cccs3)cs2)cc1 | -0.2 | 0.66
CCOCCn1cnc2sc(C(=O)NCCN(CC)CC)c(C)c2c1=O | / | 6.1
COc1ccccc1C1C=C(Nc2ccccc2)C(=O)N1c1ccccc1 (configuration not stated) | / | -0.47
OC(COC1CCCCC1)Cn1cnc2ccccc21 (configuration not stated) | 2.2 | -0.03
O=C(COc1cccc2ccccc12)N1CCN(S(=O)(=O)c2ccc3c(c2)OCCO3)CC1 | -1.2 | /
O=C1NC2=C(CCc3ccccc32)C(c2ccccc2)N1 (configuration not stated) | 1.1 | -1
CCC(=O)Nc1ccc2c(c1)ncn2C(C)(C)C | -0.7 | 0.13
C/C=C/c1c(F)c(F)c(Oc2ccc(C(=O)O)cc2)c(F)c1F | -1.1 | 0.12
CC1CC(=O)C2=C(C1)Nc1nc3ccccc3n1C2c1cccs1 (configuration not stated) | -0.15 | 53
CCC1=NN(C(=O)c2ccc(Cl)cc2)C(O)(c2ccc(Br)cc2)C1 (configuration not stated) | / | -0.83
O=C(Cn1c(=O)oc2cc(S(=O)(=O)NC3CCCC3)ccc21)NCc1ccc(F)cc1 | 0.45 | -0.65
Cc1ccc(OCC(=O)NN=C(c2ccccc2)c2ccccc2)c([N+](=O)[O-])c1 | / | 0.24
O=C(Nc1ccc(-c2nc3ccccc3s2)c(O)c1)c1ccccc1 | -0.25 | -0.01
